Bead autofluor – compound fluorescence in toxin protease inhibitor counterscreen. compound autofluorescence counterscreen, microsphere flow cytometry; stronger effect = higher value. fluorescence intensity (concentration not given with the values). 3.1% of 360,000 active. AID 624483;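 active = at least 3 SD above the mean of all compounds, about 16000 in these data; inconclusive = too few beads counted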;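 note: 100 nL of 1 mM stock went into each well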
Mtb hypoxia inh – reduces hypoxia-regulated biosensor signal in M. tuberculosis. M. tuberculosis hypoxia-regulated fluorescent reporter, fluorescence. fluorescence inhibition, % (test concentration not listed). 0.1% of 300,000 active;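 active = 35 to 45% if threefold the growth effect, above 45% if 1.5-fold the growth effect; inactive = the rest, general growth blockers included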;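 note: wells of about 50 µL received 100 nL stock; 0% = vehicle wells and 100% = reference inhibitor wells; whole bacteria with a GFP reporter of the hypoxia response; strong numbers were not always called active; many hits fall short of the cut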
ugtP null kill – growth inhibition of S. aureus ugtP deletion strain; S. aureus RN4220 ugtP deletion, OD600 growth, 16 h; some inactives read as strong as hits; growth inhibition, % (concentration not given with the values); 0.54% of 330,000 active; AID 1259309;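 active = z-score under -3 and OD600 up to 0.15 on both plates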;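 note: plate controls were untreated wells for no effect and antibiotic for full effect; wells of about 80 µL received 100 nL stock; the first replicate is given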
BJeLR viability – BJeLR cell viability loss; inhibition, % (concentration not given with the values); BJeLR (HRASV12) viability, CellTiter-Glo ATP luminescence, 48 h; reference of the scale not given here; 0.17% of 300,000 active;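 active = replicate mean above 50%; inconclusive = above 50% but judged a plate artefact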;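 note: 50 nL library stock added to about 25 µL; numbers are from one replicate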
PrP 5UTR inh – suppresses PrP 5' UTR mRNA reporter expression. cell-based PrP 5' UTR mRNA reporter, plate reader. AID 488862. 0.35% of 340,000 active. inhibition, % (concentration not given with the values);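 active = every replicate at 50% or more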;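 note: 0 = median of the neutral control wells; tested in H4 reporter cells; numbers are from one replicate; inactives centre near -14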
Sa RN4220 lethal – kills Staphylococcus aureus RN4220; S. aureus RN4220 growth, OD600, 16 h; inhibition, % (no concentration beside the values); 0.33% of 330,000 active; AID 1259311;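 active = z-score of -3 or lower and OD600 up to 0.18 on both plates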;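 note: plate controls were untreated cells for no effect and reference antibiotic for full effect; stock transfer was 100 nL into about 80 µL; one replicate is shown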
Mtb hypoxia inh growth – also measured in Mtb hypoxia inh; calls as there; growth inhibition, %; measured here: M. tuberculosis growth (absorbance);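 0% = vehicle and 100% = reference antibiotic; read after six days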
An asterisk follows results filed as active; ? = inconclusive; . = no result given.

SMILES	Bead autofluor	Mtb hypoxia inh	Mtb hypoxia inh growth	ugtP null kill	BJeLR viability	PrP 5UTR inh	Sa RN4220 lethal
CC(NC(=O)/C(=C/c1cccc([N+](=O)[O-])c1)NC(=O)c1ccco1)C(=O)O (configuration not stated)	10642	-1	5	3	0	-23	6.5
COc1ccc(O)c(/C=N/NC(=O)c2c(C)nnn2-c2nonc2N)c1	2539	.	.	.	4	-7	.
Cc1cc(NC(=O)c2c(-c3c(F)cccc3Cl)noc2C)no1	3726	5	-5	11	-2	-15	2.1
O=C(Nc1ccccn1)c1csc2c1CCCC2	3198	-1	-3	-4	-4	-73	3.9
C=CCn1c(SCC)nc2sc3c(c2c1=O)CCc1ccccc1-3	17250*	3	-1	32	-7	-14	1.5
CC(C)CC(C(=O)NC(C)(C)C)N(Cc1cccs1)C(=O)c1snc(C(N)=O)c1N (configuration not stated)	4530	6	4	4	-12	-48	0.2
COc1cc(C(=O)OCC(=O)N2CCCCC2C)ccc1OCc1c(C)noc1C (configuration not stated)	4489	13	5	11	5	-21	4.4
Cc1ccc(NC(=O)c2ccc(S(=O)(=O)N3CCCCCC3)cc2)nc1	?	3	7	1	1	-15	3.5
CCOC(=O)CC(=NNc1ncnc2ccccc12)c1ccccc1	.	5	0	2	.	.	1.8
CCCn1c(N)c(N(CCOC)C(=O)c2ccc(F)cc2F)c(=O)[nH]c1=O	3748	-1	8	14	-4	-2	-1.6
Cc1ccc(C2=NN(CC(=O)NCCN(CC(C)C)CC(C)C)C(=O)CC2)cc1	3653	11	13	-1	1	.	-0.1
O=C(Nc1cccc(C(F)(F)F)c1)Nc1ccon1	4462	9	-10	-8	5	-11	3.2
O=C(NCCCC1CCCC1)C1CCC(=O)N(Cc2ccccc2F)C1 (configuration not stated)	6012	4	8	19	-1	-14	2.3
CN(C)/C=N/c1nc(-c2ccc3c(c2)OCO3)cs1	2081	.	.	.	-7	-83	.
COc1cc(C2CC(=O)Oc3c2c(=O)n(C)c2ccccc32)cc(OC)c1OC (configuration not stated)	7317	17	9	-1	-3	-23	0.6
CC[N+]12CCC(CC1)C(=C(c1ccccc1)c1ccccc1)C2	2011	0	5	8	0	0	1.2
O=C(CC(C(=O)N1CCc2ccccc21)n1ccnc1)N1CCc2ccccc2C1 (configuration not stated)	11744	4	8	2	-14	-20	7.0
CC(=O)c1ccc(S(=O)(=O)N2CCC(c3nnc(SCCN4CCCC4)n3C)CC2)cc1	3005	-20	-5	5	8	-16	4.7
CC1CN(c2ccc([N+](=O)[O-])cc2Cl)CCN1 (configuration not stated)	1794	19	8	-1	-1	-20	5.4
CCc1ccc(OCc2ccc(C(=O)NCc3ccccn3)o2)cc1	2572	-1	-1	20	-4	-10	21
Cc1ccc(S(=O)(=O)N(C)C)cc1NC(=O)COC(=O)C1CCCC1	?	5	10	0	-5	-6	1.9
O=C(NCc1ccccn1)c1ccc(OC2CCN(Cc3ccc(CO)o3)CC2)cc1	5246	-4	8	5	-11	2	1.6
CC(=O)c1c(C)[nH]c(C(=O)NCCN2CCC(C)CC2)c1C	4895	6	9	-3	1	-8	-3.0
NS(=O)(=O)c1cc(C(=O)OCC(=O)c2ccc3c(c2)OCCO3)ccc1Cl	2603	-4	-2	1	1	-39	6.5
Nc1nc(-c2cccc(NS(=O)(=O)c3ccccc3)c2)cs1	10686	11	15	9	3	-7	9.8
CCc1nnc(NCC(=O)N2CCc3ccccc32)s1	5248	.	.	-1	-2	-5	1.5
CCN(CC)S(=O)(=O)c1ccc(OC)c(NC(=O)OCc2ccccc2)c1	3497	12	3	-4	8	-12	-2.1
O=C(N/C(=C/c1ccc(Br)cc1)c1nc2ccccc2[nH]1)c1ccco1	9452	10	3	8	-6	-29	1.2
CCCCCCn1c(N2CCCC2)nc2c1c(=O)[nH]c(=O)n2C	2976	14	5	7	-1	-21	4.2
Cc1ccnc2nc(C(=O)Nc3nc4ccccc4s3)nn12	3472	53*	23*	4	-3	-30	1.2
COc1cc(C=NN2C(=O)CSC2=S)ccc1O	.	11	12	8	.	.	4.6
Cc1ccccc1NC(=O)Cc1nc(COC(=O)c2ccc([N+](=O)[O-])cc2)cs1	4911	-1	5	2	.	1	2.5
COc1ccccc1C(=O)Nc1ccccc1N1CCN(C(=O)c2ccc(Cl)cc2)CC1	4261	-5	1	-16	-4	-11	4.0
O=C(Nc1cc(C(F)(F)F)ccc1Cl)C(Sc1n[nH]c(=O)[nH]c1=O)c1ccccc1 (configuration not stated)	4809	9	3	14	6	-12	3.2
COc1ccccc1NC(=S)NCCc1ccc(S(N)(=O)=O)cc1	4174	0	7	8	.	-21	-2.2
Cc1ccccc1S(=O)(=O)N(CC(O)CN1CCCCC1)c1ccccc1 (configuration not stated)	5306	11	-3	-6	-13	-9	1.7

Copied from the results shown (2 entries):
SMILES	Bead autofluor	Mtb hypoxia inh	Mtb hypoxia inh growth	ugtP null kill	BJeLR viability	PrP 5UTR inh	Sa RN4220 lethal
COc1ccccc1NC(=S)NCCc1ccc(S(N)(=O)=O)cc1	4174	0	7	8	.	-21	-2.2
Cc1ccccc1S(=O)(=O)N(CC(O)CN1CCCCC1)c1ccccc1 (configuration not stated)	5306	11	-3	-6	-13	-9	1.7

15 compounds from above, sorted by molecular weight, falling:
SMILES	Bead autofluor	Mtb hypoxia inh	Mtb hypoxia inh growth	ugtP null kill	BJeLR viability	PrP 5UTR inh	Sa RN4220 lethal
O=C(Nc1cc(C(F)(F)F)ccc1Cl)C(Sc1n[nH]c(=O)[nH]c1=O)c1ccccc1 (configuration not stated)	4809	9	3	14	6	-12	3.2
O=C(NCc1ccccn1)c1ccc(OC2CCN(Cc3ccc(CO)o3)CC2)cc1	5246	-4	8	5	-11	2	1.6
Cc1ccccc1NC(=O)Cc1nc(COC(=O)c2ccc([N+](=O)[O-])cc2)cs1	4911	-1	5	2	.	1	2.5
O=C(N/C(=C/c1ccc(Br)cc1)c1nc2ccccc2[nH]1)c1ccco1	9452	10	3	8	-6	-29	1.2
CCN(CC)S(=O)(=O)c1ccc(OC)c(NC(=O)OCc2ccccc2)c1	3497	12	3	-4	8	-12	-2.1
Cc1ccc(S(=O)(=O)N(C)C)cc1NC(=O)COC(=O)C1CCCC1	?	5	10	0	-5	-6	1.9
COc1ccccc1NC(=S)NCCc1ccc(S(N)(=O)=O)cc1	4174	0	7	8	.	-21	-2.2
CCc1ccc(OCc2ccc(C(=O)NCc3ccccn3)o2)cc1	2572	-1	-1	20	-4	-10	21
Nc1nc(-c2cccc(NS(=O)(=O)c3ccccc3)c2)cs1	10686	11	15	9	3	-7	9.8
CCCCCCn1c(N2CCCC2)nc2c1c(=O)[nH]c(=O)n2C	2976	14	5	7	-1	-21	4.2
Cc1ccnc2nc(C(=O)Nc3nc4ccccc4s3)nn12	3472	53*	23*	4	-3	-30	1.2
CC(=O)c1c(C)[nH]c(C(=O)NCCN2CCC(C)CC2)c1C	4895	6	9	-3	1	-8	-3.0
CCc1nnc(NCC(=O)N2CCc3ccccc32)s1	5248	.	.	-1	-2	-5	1.5
COc1cc(C=NN2C(=O)CSC2=S)ccc1O	.	11	12	8	.	.	4.6
CC1CN(c2ccc([N+](=O)[O-])cc2Cl)CCN1 (configuration not stated)	1794	19	8	-1	-1	-20	5.4

More compounds
SMILES	Bead autofluor	Mtb hypoxia inh	Mtb hypoxia inh growth	ugtP null kill	BJeLR viability	PrP 5UTR inh	Sa RN4220 lethal
CC1CCCCC1NC(=O)Cn1ncc2ccccc21 (configuration not stated)	5492	.	.	7	-1	-38	-0.9
Fc1ccc(Cn2nnnc2CN2CCN(C3CCCCC3)CC2)cc1	10691	15	3	1	10	-8	6.6
CSc1cccc(NC(=O)CCNC(=O)c2ccco2)c1	4705	4	-2	6	1	-24	-0.5
CC1CCN(C(=O)c2cccc(NC(=O)c3cccs3)c2)CC1	3162	13	4	0	-1	-20	2.5
CC1CCc2c(nc3ncnn3c2N2CCN(c3ccccc3F)CC2)C1 (configuration not stated)	3168	.	.	-7	-1	-19	1.7
Cc1ccccc1OCC(=O)OCC(=O)NC1CCCCCC1	?	-3	4	5	.	-23	4.2
COC(=O)C1=C(c2ccc(F)cc2OCc2ccccc2)C[C@@H]2CC[C@H]1N2C(=O)NCc1cc(C)oc1C(F)(F)F	3728	4	4	-7	.	-2	-17
CCOc1ccc(S(=O)(=O)NCCC(=O)N2CCC(Cc3ccccc3)CC2)cc1	5690	6	-1	1	6	-17	2.2
COc1cc(C(Nc2ccccn2)c2ccc3ccc(C)nc3c2O)cc(OC)c1O (configuration not stated)	8356	10	4	16	5	-19	25
CCN(CC)CCN1C(=O)C(=O)/C(=C(/O)c2ccc(C)cc2)C1c1cccnc1 (configuration not stated)	3986	1	-2	2	1	-31	2.3
CCNC(=O)c1ccccc1-c1nc(-c2ccccc2OC)no1	4342	-2	3	8	1	-30	4.0
O=c1c2ccccc2nc(/C=C\c2ccccc2[N+](=O)[O-])n1-c1ccccc1O	5012	2	4	23	12	-15	49
CCc1ccc2c(c1)C(c1ccncc1)=NNC(c1ccccc1)=N2	2592	9	15	10	1	-37	-3.3
Cc1cc(C)cc(OCC(=O)NN=Cc2ccccn2)c1	.	6	-2	5	.	.	6.3
Cc1ccc(NC(=O)COC(=O)[C@@H]2CC(O)CN2S(=O)(=O)c2ccc3c(c2)OCCO3)cc1 (some centres not stated)	3116	5	-5	1	.	-23	5.9
CC(=O)Nc1cc(=O)c2cccnc2[nH]1	3564	18	12	1	.	-20	1.6
CC(=NOC(=O)Nc1ccccc1)c1cnn(-c2cc(C(F)(F)F)cc(C)n2)c1C	.	-5	2	4	.	.	-0.4
c1ccc(-c2csc(=Nc3cccnc3)n2CC2CCCO2)cc1 (configuration not stated)	2553	-6	4	22	1	-8	5.9
COc1ccc(C)cc1NC(=O)C(NCC1CCCO1)c1ccccc1 (configuration not stated)	2046	.	.	.	3	-26	.
Cc1cc(C)n(-c2ccc(C(=O)Nc3ccc4c(c3)OCO4)cc2)n1	2876	10	8	-17	1	-63	-1.7

Compound activity (PubChem BioAssay)
